# Screening results: PubChem BioAssay, several laboratories
# MLL AF4-AF9 inh: MLL-AF4/AF9 protein interaction inhibition. inhibition, % at 10 µM. 350,000 compounds, 0.47% hits. AlphaScreen, biotin-AF4 peptide binding to FLAG-AF9. P42568;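 active = every replicate reaching a set inhibition limit, whatever the replicate mean, cut at about 25% in these data; inconclusive = mean inhibition reaches that limit but some replicates miss it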;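 also: 0% = plate neutral control median and 100% = total signal loss; the record names both 10 and 1 µM as test concentration; the first replicate is given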
# Target sequence (P42568 whole entry, looked up): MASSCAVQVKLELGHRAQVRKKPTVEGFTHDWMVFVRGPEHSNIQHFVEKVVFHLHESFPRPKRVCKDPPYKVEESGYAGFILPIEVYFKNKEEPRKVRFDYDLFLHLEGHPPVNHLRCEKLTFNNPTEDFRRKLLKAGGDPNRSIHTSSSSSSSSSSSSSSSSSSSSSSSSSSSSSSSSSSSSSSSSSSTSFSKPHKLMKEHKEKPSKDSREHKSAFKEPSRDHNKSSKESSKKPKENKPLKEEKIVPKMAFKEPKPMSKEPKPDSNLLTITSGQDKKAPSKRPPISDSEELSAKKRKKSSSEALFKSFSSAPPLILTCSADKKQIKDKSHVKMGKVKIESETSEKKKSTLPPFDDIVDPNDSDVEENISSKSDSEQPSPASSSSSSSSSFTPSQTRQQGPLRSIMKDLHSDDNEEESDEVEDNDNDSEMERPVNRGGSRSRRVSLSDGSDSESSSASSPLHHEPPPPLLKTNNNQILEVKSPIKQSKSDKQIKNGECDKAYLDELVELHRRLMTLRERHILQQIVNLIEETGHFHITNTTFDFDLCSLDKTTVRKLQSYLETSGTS
# T cruzi inh: blocks replication of Trypanosoma cruzi; T. cruzi beta-gal in NIH3T3, luminescence, 90 h; inhibition, % (concentration not given with the values); 300,000 compounds, 1.4% hits;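 active = mean inhibition across valid replicates above about 55%, limit read from the data; inconclusive = mean below that limit but half or more replicates reach it; inactive = mean below it, under half of replicates reach it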;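 also: signal also drops with host cell toxicity which is not excluded here; 0% = plate median of DMSO wells and 100% = zero luminescence signal; higher percent means less beta-gal luminescence so fewer parasites; stock transfer was 50 nL into about 50 µL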
# Beta apoptosis: blocks beta cell apoptosis | protection from apoptosis, % (concentration not given with the values) | AID 435005 | INS-1E cytokine-induced death, ATP luminescence, 48 h; percent of positive-control rescue, neutral wells zero | 300,000 compounds, 0.8% hits;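 active = all replicates at 75% or more, or half of them and the mean; inconclusive = half reach 75% but not the mean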;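 also: 0% = cytokine-treated negative control wells and 100% = positive control rescue; higher means more ATP so stronger rescue from cytokine killing; wells of about 40 µL received 100 nL stock; the first replicate is given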
# Ecoli rRNA inh: inhibitors of bacterial rRNA selective over humanized ribosomes | GFP signal change (wild-type ribosome), % (concentration not given with the values) | E. coli WT GFP vs humanized-ribosome RFP mutants, fluorescence, 24 h; active compounds read low; DMSO median 0, no signal -100 | 350,000 compounds, 1.6% hits;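 active = significant combined selectivity score with lowered wild-type GFP, culture density cut under 30%, mutant RFP and density less affected; inactive = any of these conditions unmet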; also: one replicate is shown; some compounds called inactive have numbers as strong as hits
# Bfl-1 A1 inh: inhibitors of the anti-apoptotic protein A1, read as caspase activation; MEF A1-2A-BIM cells, Caspase-Glo 3/7 luminescence, 3 h; percent of clofoctol response, vehicle zero; caspase activation, % (test concentration not listed); 330,000 compounds, 0.066% hits; AID 2462;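 active = over half of replicate activation scores above 10%, or exactly half above 10 with the replicate mean above 10; inconclusive = replicate mean below 10 yet half the replicates above 10; inactive = over half of replicates below 10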;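 also: wells of about 30 µL received 50 nL stock; many hits fall short of the cut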
# FGF22 binding: binders of recombinant human FGF22 by thermal shift; Q9HCT0; AID 651658; SYPRO orange fluorescence; percent of sucrose octasulfate shift, DMSO zero; 340,000 compounds, 1.5% hits; calls only at 9.99 µM;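 active = melting point raised past a set limit in the mean and every replicate; inconclusive = no clear call; three in four hits are not shown here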
# Target sequence (Q9HCT0 whole entry, looked up): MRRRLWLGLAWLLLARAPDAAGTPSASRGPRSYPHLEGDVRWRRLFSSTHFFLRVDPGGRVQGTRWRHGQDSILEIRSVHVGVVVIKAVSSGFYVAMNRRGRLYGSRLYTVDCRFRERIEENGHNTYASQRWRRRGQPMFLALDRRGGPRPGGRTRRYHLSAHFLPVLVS
# UCH37 inh: inhibitors of human deubiquitinating enzyme UCH37; Q9Y5K5; inhibition, % (concentration not given with the values); purified proteasome/UCH37, Ub-AMC cleavage fluorescence; 330,000 compounds, 0.33% hits; AID 588478;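 active = mean of two replicates above 20%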;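 also: 0% = compound-free wells with enzyme and 100% = wells lacking proteasome; stock transfer was 100 nL into about 20 µL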
# Target sequence (Q9Y5K5 whole entry, looked up): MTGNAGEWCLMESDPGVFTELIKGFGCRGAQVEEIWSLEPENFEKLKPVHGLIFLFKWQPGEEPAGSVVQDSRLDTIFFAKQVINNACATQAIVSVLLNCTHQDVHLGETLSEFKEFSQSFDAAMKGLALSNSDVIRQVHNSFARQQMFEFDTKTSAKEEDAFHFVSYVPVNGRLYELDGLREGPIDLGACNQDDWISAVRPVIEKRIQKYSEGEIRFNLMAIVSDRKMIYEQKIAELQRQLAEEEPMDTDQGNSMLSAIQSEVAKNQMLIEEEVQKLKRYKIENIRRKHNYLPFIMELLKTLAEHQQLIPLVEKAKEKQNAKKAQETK
#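 Test system – human UCH37 enzyme supplied as purified proteasome complex · Incubation – 30 min preincubation with enzyme, 25 min cleavage at room temperature · Detection – AMC fluorescence from Ub-AMC cleavage, excitation 355 nm, emission 460 nm · Benchmarks – no-proteasome wells (full inhibition) and compound-free wells (no inhibition)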
# Ecoli growth: inhibitors of Escherichia coli growth | 330,000 compounds, 0.21% hits | OD600 absorbance (test concentration not listed) | OD600, 23 h; active compounds read low;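 active = OD600 absorbance below the run mean of sample wells minus 3.6 SD, in any replicate, cut at about 0.56 in these data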;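 also: stock transfer was 300 nL into about 60 µL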
# Ecoli rRNA inh OD600: further read-out of Ecoli rRNA inh, marked with its call; OD600 change, %; measured here: OD600 growth;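 optical density of the mix in the first replicate; 0 = DMSO median and -100 = no signal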
# Ecoli rRNA inh RFP: also measured in Ecoli rRNA inh; calls as there; RFP signal change, %; measured here: RFP humanized mutant strains;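 first replicate; 0 = DMSO median and -100 = no signal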
# Active calls of the source: *; i = inactive; ? = inconclusive; / = no result given. Some of the compounds tested; the hit share may differ from the screen's.
SMILES,MLL AF4-AF9 inh,T cruzi inh,Beta apoptosis,Ecoli rRNA inh,Ecoli rRNA inh OD600,Ecoli rRNA inh RFP,Bfl-1 A1 inh,FGF22 binding,UCH37 inh,Ecoli growth
CCOc1ccc(CN2CCN(Cc3ccc(C)o3)CC2CCO)cc1 (centres undefined),3.3,46,-2,9,12,2.7,0.5,i,-2.9,0.7
Cc1c(C(=O)N2CCC[C@H]2C(N)=O)oc2c(F)cccc12,-0.8,-7,/,1,2,5.2,-0.1,i,4.6,0.7
COc1ccc(C(=O)OCC(=O)c2ccc(F)cc2)cc1OC,-0.8,/,-3,-22*,-16*,-5.4*,0.3,i,-2.1,0.65
CC(C(=O)NCC1CCCCC1)N(C)Cc1ccc(Br)cc1 (centres undefined),-1.6,28,3,-68,-82,-18,0.3,i,2.1,0.68
Cc1ccc(OCC(=O)Nc2ccc([N+](=O)[O-])cn2)cc1C,/,2,0,/,/,/,-0.8,/,-0.8,0.72
Cc1ccc(NC(=O)CC2COc3ccccc3O2)cc1 (centres undefined),/,-14,/,/,/,/,2.0,/,-1.1,0.74
CS(=O)(=O)Nc1ccc(C(=O)Nc2ccccc2Sc2ccccc2)cc1,/,-4,-3,/,/,/,-0.6,/,1.8,0.67
O=C(CN1C(=O)COc2ccc(S(=O)(=O)N3CCCC3)cc21)NC1CC1,-8.0,3,-8,8,3,0.3,-0.8,i,3.6,0.72
O=C(CS(=O)(=O)c1ccc(Cl)c(Cl)c1)Nc1ccccc1Cl,/,-6,-8,/,/,/,-0.5,/,1.8,0.69
CCc1ccc(OCCCC(=O)Nc2cccc(C(=O)O)c2)cc1,2.1,4,0,-2,-2,-1.8,-0.7,i,4.9,0.68
C/C(=N\NC(=O)C1COc2ccccc2O1)c1ccc(N2CCOCC2)cc1 (centres undefined),0.1,-20,-5,4,7,1.7,0.1,i,/,/
COc1ccc(C(=O)N2CCCC(CCC(=O)N3CCN(c4ccccn4)CC3)C2)cc1 (centres undefined),-0.4,4,/,3,-3,-1.4,1.6,i,-1.6,0.72
COc1ccc(/C=C/C(=O)N/C(=C\c2ccco2)C(=O)NCCc2nc3ccccc3[nH]2)cc1,14,-8,-1,-10,6,28,0.5,i,9.1,0.66
CC(=O)NN1C(=O)c2ccccc2NC1c1ccccc1F (centres undefined),-2.9,-6,-6,6,11,-0.9,0.1,i,-461,0.67
CCC(=O)Nc1ccc(C(=O)N/N=C/c2c(C)[nH]c3ccccc23)cc1,2.6,-10,-2,-15,-9,3.4,1.0,i,/,/
CCc1nc(C)cn1S(=O)(=O)c1cc(C)c(OC)cc1C,1.9,-4,-1,5,6,-1.6,-0.9,i,1.1,0.73
COc1ccc(S(=O)(=O)Nc2ccccc2C(N)=O)cc1OC,-0.8,-14,-7,9,4,-0.3,0.2,i,-43,0.68
N#Cc1ccccc1S(=O)(=O)N1CCN(CC(=O)Nc2ccnn2C2CCCC2)CC1,2.3,/,/,-1,-3,-0.8,/,i,3.0,0.67
CCC(C)NC(=O)C1CCCN(C(=O)Nc2ccc(F)cc2)C1 (centres undefined),/,9,-4,/,/,/,1.9,/,0.7,0.7
O=C(NCCNc1ccnc2cc(Cl)ccc12)c1ccccc1F,-3.1,-2,-3,4,6,0.6,1.2,i,5.8,0.65
O=S(=O)(Nc1ccc(C(F)(F)F)cc1)c1cccs1,-9.3,-25,9,-10,-9,-0.7,-0.5,i,-0.4,0.64
O=C(CN1CCCC1)N1CCCC(c2ccc(F)cc2)c2ccc(F)cc21 (centres undefined),4.9,18,1,3,6,0.7,0.6,i,4.4,0.69
Cc1cccc2c1cnn2C(=O)Nc1ccccc1Br,-1.5,-16,-11,14,13,-5.1,0.4,i,-0.4,0.69
C#CC(CC)(CC)NC(=O)NC1CCCCC1,-0.3,-2,-2,-7,-4,-2.4,-0.2,i,1.1,0.64
Cc1ccc(-n2cnc3sc(C)c(C)c3c2=O)cc1,1.4,-6,-8,7,9,-2.9,-2.8,i,-1.1,0.7
OCc1cn(-c2ccccc2)nc1-c1ccc2c(c1)OCCO2,/,-16,-7,/,/,/,0.5,/,0.1,0.72
COc1ccc(C(=O)N/N=C(\C)CC(=O)Nc2ccc(Cl)cn2)cc1,/,-23,0,3,1,0.6,0.3,i,/,/
COc1cc(NC(=O)CN2CCN(S(=O)(=O)/C=C/c3ccccc3)CC2)cc(OC)c1OC,2.9,/,-4,-4,-3,0.2,-0.3,i,-2.8,0.68
CC(C)N(Cc1ccccc1)C(=O)CN1C(=O)c2ccccc2C1=O,-1.8,4,-6,9,3,0.4,2.1,i,3.4,0.67
CCN(CC)S(=O)(=O)c1ccc(Cl)c(C(=O)NCc2ccccc2Cl)c1,/,3,-2,/,/,/,-0.5,/,6.4,0.7
CCOC(=O)c1ccc(NC(=S)NCc2cccnc2)cc1,?,17,59,-25,-33,33,1.2,i,0.7,0.61
O=C(CCl)N1CCN(C(=O)C2COc3ccccc3O2)CC1 (centres undefined),0.8,/,-30,11,5,2.7,1.0,i,5.6,0.67
c1ccc(Cc2noc(CN3CCN(C4CCc5ccccc5C4)CC3)n2)cc1 (centres undefined),0.7,?,-2,-6,3,3.1,-0.6,i,2.4,0.69
C=CCNc1nc2ccccc2nc1NS(=O)(=O)c1cccc(C)c1,0.6,-7,4,-16,-28,-11,0.1,i,-65,0.64
Cc1cccc(C)c1N1CCN(S(=O)(=O)N2CCCCC2)CC1,-6.3,32,6,-46,-68,-16,-0.4,i,2.7,0.64
O=C(NCc1ccc(Cl)cc1)C(=O)N/N=C/c1ccc(Br)cc1,-7.0,-1,-9,12,6,-1.9,0.1,i,/,/
O=C(NNC(=O)c1cccc2ccccc12)c1ccc(Br)cc1,-1.5,/,/,-2,15,-1.4,/,i,-16,0.7
Cc1ccc(S[C@@H](CCN2CC[C@H](C(C)(C)C)CCC2=O)c2ccccc2)cc1,-0.4,39,-5,1,6,-10,0.1,i,/,/
O=C1CCc2cc(S(=O)(=O)N3CCCC3C(=O)N3CCN(c4ccccc4F)CC3)ccc2N1 (centres undefined),-3.1,/,-1,6,9,0.0,-0.6,i,1.7,0.68
Cc1ccc(-c2csc(N(CCO)CCCn3c(C(F)(F)F)nc4ccccc43)n2)cc1,-1.3,6,9,-2,1,36,-0.8,i,1.9,0.68
COc1ccc(NC(=O)c2cn(CCC#N)nc2-c2cc3ccccc3o2)cc1,4.6,1,0,0,-2,-4.8,1.6,i,-4.7,0.72
c1ccc(CNc2nc3ccccc3n3cnnc23)nc1,-10,-24,7,15,18,2.9,-0.6,i,6.8,0.68
COc1ccc(N/C=C2\C(=O)c3c(sc(C)c3C)N(C)S2(=O)=O)cc1,4.5,2,-7,13,3,3.0,1.7,i,-97,0.72
Cc1cccc(NC(=O)c2ccccc2NC(=O)c2ccccc2)n1,1.3,-8,7,-3,-2,0.5,0.0,i,-1.5,0.69
CCc1nnc(SCC(=O)Nc2ccccc2Cl)nc1CC,-0.4,-7,-2,-13,-1,0.7,-0.3,i,0.1,0.69
Cc1cccc(C(=O)N(C)c2nnc(-c3ccncc3)s2)c1,/,-8,-1,3,7,-1.5,-0.6,/,4.6,0.75
O=C(Cn1cccc1)NC1CCCCCC1,/,-15,-8,/,/,/,0.3,/,4.8,0.72
CC1(C)CCCC2=C1CC1C(=O)N(Cc3cccnc3)C(=O)C1C2 (centres undefined),/,9,-3,/,/,/,0.0,/,39*,0.65
CCOC(=O)C(NCc1ccc2c(c1)OCO2)(NC(=O)c1ccccc1)C(F)(F)F (centres undefined),/,-7,-2,/,/,/,0.5,/,4.0,0.71
CN(C1CCCCC1)S(=O)(=O)c1cccc(C(=O)Nc2ccccn2)c1,0.4,0,-4,-26,-27,-3.1,0.2,i,/,/

# Additional compounds.
SMILES,MLL AF4-AF9 inh,T cruzi inh,Beta apoptosis,Ecoli rRNA inh,Ecoli rRNA inh OD600,Ecoli rRNA inh RFP,Bfl-1 A1 inh,FGF22 binding,UCH37 inh,Ecoli growth
COc1ccc2c(=O)cc(-c3ccncc3)oc2c1OC,0.4,/,/,8,16,2.2,/,i,4.1,0.64
O=C(CNC(=O)c1ccccc1Br)N/N=C\c1cc([N+](=O)[O-])cc(Br)c1O,-2.7,1,-6,-11,-42,-8.6,-0.3,/,/,/
CC(C)(C)c1ccc(OCC(=O)Nc2ccncc2)c(Br)c1,4.8,-8,/,-54,-75,-20,-1.1,i,0.2,0.62
CCN1C(=O)[C@@H]2[C@@H](c3ccc(-c4ccc5c(c4)OCO5)c(OC)c3)N3CCCC[C@@]3(C(=O)OC)[C@@H]2C1=O,0.6,1,1,10,5,9.9,0.5,i,-1.3,/
O=C(CCC(=O)N1CCCC(Nc2ccccc2)C1)c1ccc(F)cc1 (centres undefined),-0.6,15,1,1,-5,-2.5,0.7,i,1.4,0.68
CC(=O)N1CCOc2ccc(S(=O)(=O)N3CCC(C(=O)Nc4cc(C)cc(C)c4)CC3)cc21,0.8,-1,4,4,7,-2.0,0.2,i,1.4,0.69
CCOC(=O)N1CCN(C(=O)C(=O)c2cn(CC(=O)N3CCCCCC3)c3ccccc23)CC1,-2.3,43,7,4,13,2.2,1.4,i,0.7,0.68
CCN(CC)c1ccc(NC(=O)CCS(=O)(=O)c2cccc3nsnc23)c(C)c1,2.9,5,2,1,-7,-0.1,0.1,i,2.6,0.68
CC(=O)c1sc(N/N=C/c2cccc(O)c2)nc1C,6.2,10,/,-21*,0.4*,-4.4*,-1.3,i,/,/
CCCN1CCC(=O)N([C@H](CSc2ccc(OC)cc2)c2ccccc2)CC1,-0.4,-4,3,-5,-4,-2.3,-0.2,i,-0.1,/
CC(CNC(=O)c1cccc(Br)c1)n1cncn1 (centres undefined),-9.4,2,-9,17,10,1.2,-0.2,i,5.9,0.73
O=C(CC1NC(=O)NC1=O)Nc1ccc(Cl)cc1 (centres undefined),/,-10,-6,/,/,/,-0.4,/,3.6,0.71
O=C(COC(=O)c1cccc(O)c1)NC(=O)Cc1ccccc1,-10,-11,-5,8,9,1.3,0.2,i,-1.0,0.71
O=C(ONC(=O)C1CCCCC1C(=O)NOC(=O)c1ccccc1)c1ccccc1 (centres undefined),-2.1,/,/,9,6,-0.1,/,i,0.9,0.68
Nc1ccc(S(=O)(=O)C(F)(F)F)cc1N,2.0,-1,-4,-3,-20,-2.9,-1.3,i,1.6,0.7
CCCCn1c(N)c(N(CCC(C)C)C(=O)C2CC(=O)N(c3ccccc3OCC)C2)c(=O)[nH]c1=O (centres undefined),0.2,-6,/,18,13,2.8,-0.1,i,0.6,0.72
C=CCNC(=O)c1ccccc1SCc1c(C)noc1C,-2.2,-13,-3,21,18,1.2,0.7,i,1.6,0.73
COC(=O)c1c(-c2cccs2)csc1NC(=O)CSc1ncnc2sc(C)c(C)c12,/,14,-8,10,9,-2.3,0.4,/,2.4,0.73
